GIV-Gai inh: GIV-Galpha-i interaction inhibition; P08753; Galpha-i3/FITC-GIV peptide fluorescence polarization, 90 min; active compounds read low; scaled: aluminum fluoride 0%, vehicle 100%; percent of control (FP), % (test concentration not listed); actives 0.42% (n = 210,000); AID 1224905;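 active means replicate mean at 85% of control or lower, very high polarization wells dropped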;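 further: lower values mean more displacement of the GIV peptide from Galpha-i3; wells of about 15 µL received 100 nL stock; the first replicate is given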
Target sequence (P08753 whole entry, looked up): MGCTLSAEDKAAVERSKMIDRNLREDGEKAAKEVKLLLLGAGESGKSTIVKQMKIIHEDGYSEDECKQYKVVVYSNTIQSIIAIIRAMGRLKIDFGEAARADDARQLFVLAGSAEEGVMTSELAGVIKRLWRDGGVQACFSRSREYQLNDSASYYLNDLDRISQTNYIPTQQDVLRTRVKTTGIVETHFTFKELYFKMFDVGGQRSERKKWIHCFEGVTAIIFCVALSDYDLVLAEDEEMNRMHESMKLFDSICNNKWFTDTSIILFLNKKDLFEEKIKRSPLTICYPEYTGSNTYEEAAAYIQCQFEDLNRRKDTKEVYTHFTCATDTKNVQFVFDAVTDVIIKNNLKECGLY
HCMV UL50-53 inh: disrupts HCMV UL50-UL53 complex binding; HTRF UL50-UL53 interaction, normalized percent inhibition; inhibition, % (test concentration not listed); actives 0.15% (n = 190,000);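 active means both replicates at 50% or more, plus weaker picks with an unusually low signal ratio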;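 further: stock transfer was 100 nL into about 20 µL; 0% = negative control wells and 100% = wells with untagged competitor protein; inactives centre near -12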
Sa growth inh: blocks Staphylococcus aureus growth; S. aureus RN4220 growth, OD600, 20 h, 42 °C; active compounds read low; relative growth, % (no concentration beside the values); AID 720641; actives 0.53% (n = 170,000);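 active means growth at 42 °C up to 50% and 20 or more points under that at 30 °C, or under 10% at both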;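 further: 300 nL library stock went into each well; scaled to the means of positive and negative controls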
Sa growth inh second temp: second read-out of Sa growth inh, no call of its own (marks repeat the call); relative growth, %; measured here: growth at 30 °C;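 optical density after 20 h as mean of two plates; 100% = untreated growth and lower means inhibition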
Numbers without * were called inactive; nt = not tested or not shown; & = joins results of further samples.

The first 3 entries, to show the layout:
SMILES	GIV-Gai inh	HCMV UL50-53 inh	Sa growth inh	Sa growth inh second temp
N#CC(C(=O)c1cc2ccccc2o1)c1nc2ccccc2s1 (centres undefined)	nt	-23	54	14
c1cnc(SCCOc2ccc3c(c2)CCC3)nc1	99	4	103	107
O=C(c1ccco1)N1CCN(CCN2CCOCC2)CC1	99	-6	94	95

The list itself, repeating the preview:
SMILES	GIV-Gai inh	HCMV UL50-53 inh	Sa growth inh	Sa growth inh second temp
N#CC(C(=O)c1cc2ccccc2o1)c1nc2ccccc2s1 (centres undefined)	nt	-23	54	14
c1cnc(SCCOc2ccc3c(c2)CCC3)nc1	99	4	103	107
O=C(c1ccco1)N1CCN(CCN2CCOCC2)CC1	99	-6	94	95
COc1cc2nc(Nc3ccc(C)c(C)c3)nc(N)c2cc1OC	109	13	95	0
CCN(CC)C(=O)Cn1c(SCCOc2ccc(Cl)cc2)nc2ccccc21	104	-21	104	71
O=C(CCN1CCOCC1)c1ccc(Br)cc1	nt	-16	-0.4*	-0.1*
CN(Cc1ccc(F)cc1)S(=O)(=O)c1nnc(NC(=O)c2ccccc2)s1	103	nt	106	79
Cc1ccc(NC(=O)c2nnc(CCC(=O)Nc3cccc(Cl)c3)s2)cc1	98	-5	nt	nt
CCOC(=O)CSc1nc2sc3c(c2c(=O)n1-c1ccccc1)CC(C(C)C)OC3 (centres undefined)	108&98	0&-6	101	102
Cc1ccc(C)c(N2CCN(C(=O)c3cc(S(=O)(=O)N4CCCCCC4)cn3C)CC2)c1	98	nt	112	87
CS(=O)c1sc(Br)c2c1C(=O)CC(C)(C)C2 (centres undefined)	98	-68	94	99
Cc1noc2ncnc(N3CCCC(C(=O)NCc4cccnc4)C3)c12 (centres undefined)	107	-2	nt	nt
O=C(CN1CCC(NC(=O)Nc2ccccc2-c2ccccc2)CC1)NCc1ccco1	100	6	108	94
COc1ccc(C2CC(=O)Nc3nc(N)[nH]c(=O)c32)c(OC)c1 (centres undefined)	103	34	nt	nt
CC(=O)NC1C(O/N=C2/C(=O)N(CCOc3ccccc3C)c3ccc(C)cc32)OC(CO)C(O)C1O (centres undefined)	103	12	93	95
Cc1ccc(S(=O)(=O)C2(C(=O)N(C)C3CCCCC3)CC2)cc1	100	nt	95	82
O=C(c1ccc(NC2=NC3CS(=O)(=O)CC3S2)cc1)N1CCCCC1 (centres undefined)	105	nt	112	99
CCOC(=O)c1c(O)[nH]c(N=O)c1SC	98	-6	102	75
Nc1ncnc2c1nc(SCCO)n2Cc1ccccc1	105	-15	89	80
Cc1oc(-c2cccc(Cl)c2)nc1CNS(=O)(=O)c1ccc(C(C)C)cc1	98	-10	nt	nt
CC(=O)N1CCc2cc(S(=O)(=O)NC(CC(C)C)C(=O)Nc3cc(C)cc(C)c3)ccc21 (centres undefined)	107	-1	107	83
CCc1nnc(-c2cn(CC(=O)NCc3cc(OC)ccc3OC)c3ccccc23)o1	98	-18	nt	nt
CCc1c(C)nc2cc(-c3cc(OC)cc(OC)c3)nn2c1NCCO	106	-5	104	75
CN(C)c1ccc(-n2nnnc2SCC(=O)c2ccccc2)cc1	107	-12	78	90
CCN(CC)CCNc1ncnc2c1cnn2-c1ccc(F)cc1	98	-3	87	73
Later entries.
SMILES	GIV-Gai inh	HCMV UL50-53 inh	Sa growth inh	Sa growth inh second temp
CN1CCN(C(CNC(=O)Cc2ccc(Cl)cc2)c2ccc(N(C)C)cc2)CC1 (centres undefined)	105	2	nt	nt
CCCCc1ccc(C(NC(=O)CCCn2cnc3c2c(=O)n(C)c(=O)n3C)c2cccs2)cc1 (centres undefined)	nt	-34	85	94
COc1ccc(C(=O)OC(C)CN(C)C)cc1 (centres undefined)	99	nt	93	82
O=C(NCc1ccc(Cl)cc1)C1=Cc2cc(Br)ccc2OC1	102	nt	105	89
COc1ccc(CCNC(=O)c2snnc2C)cc1	101	-20	95	92
COc1ccc(/C=C/C(=O)Nc2cc(C)[nH]n2)cc1OC	nt	-43	97	99
O=C(NC(c1ccccc1)c1ccccc1)C1CCCO1 (centres undefined)	105	14	87	97
Cc1oc(C(C)(C)C)cc1-c1cc(NC(=O)c2ccccc2)n[nH]1	101	3	132	74
CC1CCC(C(C)C)C(OC(=O)COC(=O)c2ccc(O)cc2)C1 (centres undefined)	nt	-26	104	52
Cc1cn(S(=O)(=O)c2ccc(C(C)(C)C)cc2)cn1	103	-13	nt	nt
CCCCc1nnc(NC(=O)CC)s1	nt	13	103	96
O=C(Cn1cccc1C(=O)c1ccccc1)NCc1ccc2c(c1)OCO2	104	5	105	75
Cc1nncn1-c1ccc(C(=O)Nc2cc(F)ccc2F)cc1	104	nt	102	82
Cn1cc(-c2cc3n(n2)CCC(=O)N3CC(=O)N2CCCC2)c2ccccc21	100	-31	nt	nt
COC(=O)C1=C(O)/C(=C\c2ccc(Br)cc2)N=C1C	99	nt	97	88
CC(C)C(=O)Oc1ccc2c(=O)c(Oc3ccccc3Br)coc2c1	104	2	101	86
Cc1cccc(-c2csc(-c3nc(-c4ccc5c(c4)OCO5)no3)c2-n2cccc2)c1	100	-24	nt	nt
Cc1cc(C(=O)COc2ccc(Br)cc2F)c(C)n1C1CC1	nt	-21	91	92
Cc1cc(/C=C2/SC(=O)N(C)C2=O)c(C)n1-c1ccccc1	nt	-21	104	84
CCCCNC(=O)CCn1c(=O)c2cccn2c2ccc(F)cc21	100	-8	98	74
CNc1nc(N2CCCCCC2)nc(-n2cnc(SC)n2)n1	98	-10	nt	nt
Cc1cc(CSc2cc(C)c(Cl)cc2C)no1	103	-27	102	93
O=C(NCCc1nc(-c2ccccc2)no1)c1cc(-c2ccc3c(c2)OCCO3)on1	105	-19	nt	nt
CCC(=O)N1CCCc2cc(S(=O)(=O)N3CCC(C(=O)Nc4cccc(Cl)c4)CC3)ccc21	102	nt	97	106
O=C(c1ccc(C(=O)N2CCCCCC2)s1)N1CCCCCC1	nt	-26	112	78
Following part.
SMILES	GIV-Gai inh	HCMV UL50-53 inh	Sa growth inh	Sa growth inh second temp
CSc1nn(Cc2cccc(Cl)c2)c(N(C(C)=O)C(C)=O)c1S(=O)(=O)c1ccccc1	104	-3	89	75
Cc1nc(-c2cccc(F)c2)sc1CCNC(=O)c1c(F)cccc1Cl	102	nt	90	92
Cc1nn(C)c(C)c1-c1cc(C(=O)O)[nH]n1	113	1	nt	nt
O=C(CSc1nc(-c2cccs2)nc2cc(=O)[nH]n12)Nc1ccc(F)cc1	99	nt	93	80
c1ccc(CN2c3ccccc3-c3nc4ccccc4n3C2c2ccco2)cc1 (centres undefined)	107	-20	103	87
Cn1c(=O)c2c(nc(NCc3ccco3)n2C)n(C)c1=O	103	nt	118	90
CC(Nc1ccc2c(c1)OCO2)C(=O)Nc1ccccc1 (centres undefined)	nt	-24	68	93
CCCC(C(=O)O)N1C(=O)c2ccccc2C1=O (centres undefined)	101	3	105	95
Cc1nc2cccnc2n1-c1cc(C(=O)NC2CCS(=O)(=O)C2)ccc1Cl (centres undefined)	102	-9	nt	nt
CCCCC(CC)Cn1c(=S)[nH]c2c(sc3ccccc32)c1=O (centres undefined)	102	nt	89	83
COc1ccc(CNS(=O)(=O)c2cccc3nsnc23)cc1	103	-74	103	103
Cc1ccc(-n2ncc3c(NCCc4ccccc4)ncnc32)cc1C	110	nt	127	105
COC1CCCCC1Nc1cc(C)ccc1C (centres undefined)	nt	3	108	94
O=C(CSc1nnc(-c2ccccc2)c(-c2ccccc2)n1)NC1CCCC1	100	nt	92	88
Cc1cccc2sc(NC(=O)c3ccncc3)nc12	nt	-46	69	91
Cc1noc(C)c1COC(=O)/C=C/c1ccc2c(c1)OCO2	nt	1	103	95
COc1ccc(Cc2nnc(SCC(=O)C(C)(C)C)n2-c2ccc(F)cc2)cc1OC	102	-21	99	93
CC(C)NC(=O)c1cnn(-c2ccc(Br)cc2)c1	102	-28	nt	nt
COc1ccc(N2CCN(Cc3nc4c(c(=O)[nH]c(=O)n4C)n3Cc3ccccc3F)CC2)cc1	109	24	88	95
O=C(CSc1nnc(COc2ccccc2)o1)N1CCc2ccccc21	102	-24	93	88
C=CCSc1n[nH]c2nc3ccccc3n12	108	-22	nt	nt
COc1ccc(CCNC(=O)c2cc(Sc3ccc(F)cc3)nc3ccccc23)cc1OC	104	nt	153	79
Oc1ccc(-c2nc3ccccc3s2)cc1	nt	-6	97	59
Cn1c(=O)c2c(-c3cccc(Cl)c3)c(NCCc3ccccc3)oc2n(C)c1=O	105	12	nt	nt
O=C(Nc1nc2nc(-c3ccccc3)cc(=O)n2[nH]1)c1cccs1	109	5	74	89
(further entries)
SMILES	GIV-Gai inh	HCMV UL50-53 inh	Sa growth inh	Sa growth inh second temp
CCN(CC)c1nc(N2CCOCC2)nc(N2CCOCC2)n1	102	-9	109	73
Cc1noc(Cn2c(=O)c3ccccc3n(CC(=O)Nc3ccc(F)cc3F)c2=O)n1	99&105	-9	92	87
Cc1ccc(C)n1-c1nnc(N2CCC(C(=O)NC3CCCCC3)CC2)s1	104	-16	81	84
O=C(SCc1ccco1)c1c(Cl)nc2ccccn12	nt	14	68	91
CN1CCC(=NNC(=O)c2cccc(S(=O)(=O)Nc3cc(Cl)ccc3Cl)c2)CC1	nt	-16	92	90
CCOC(=O)c1cc(C(=O)CSc2ccc(C(F)(F)F)cn2)on1	101	-4	94	72
O=C(NCCc1csc2nc(-c3cccc(F)c3)nn12)c1ccccc1Br	103	-12	nt	nt
CC(=O)NCc1nc2ccccc2[nH]1	101	3	93	98
Oc1ccc(Oc2ncc(Cl)cc2Cl)cc1	99	-45	103	92
CCOC(=O)C1=C(CN2CCOCC2)NC(=O)NC1c1cccs1 (centres undefined)	103	-14	103	86
Cc1nc2sccn2c(=O)c1S(=O)(=O)Nc1ccc(N2CCOCC2)c(Cl)c1	107	-7	120	86
CC12C(=O)C3C4CC5C3C(=O)C1C5C42 (centres undefined)	102	-25	82	87
Cc1ccc(S(=O)(=O)NC(=O)N2CCC(Nc3nccc(C(F)(F)F)n3)CC2)cc1	105	-16	98	87
COc1ccc(C2C=C(c3ccccc3)Nc3ncnn32)cc1 (centres undefined)	nt	-89	118	63
O=c1[nH]c2ccc(N=Cc3ccccc3C(F)(F)F)cc2[nH]1	101	-7	93	80
Cc1occc1-c1nnc(SCC(=O)c2c[nH]c3ccccc23)n1-c1ccccc1	nt	-2	91	98
Cc1ccc(C(=O)Nc2ccc3c(c2)CS(=O)(=O)C3)cc1	105	-5	96	93
Cc1nc2sccn2c(=O)c1S(=O)(=O)Nc1cccc(Cl)c1C	104	-1	102	86
CC(NC(=S)Nc1ccc2c(c1)OCO2)C1CCCO1 (centres undefined)	101	-8	110	96
CCc1ccc(NC(=O)Cn2c(=O)n(CCCCC(=O)NCCc3ccc(Cl)cc3)c(=O)c3ccccc32)cc1	103	-6	103	88
CCOC(=O)c1sc2nc3n(c(=O)c2c1C)CCC3	102	-16	93	81
COc1ccc(CNc2ccc3cc(S(=O)(=O)N4CCCCC4)ccc3n2)cc1	103	nt	99	90
CCOC(=O)c1ccc2nc3c(nc2c1)C(=O)c1ccccc1C3=O	123	-6	88	67
CN(C)/C=C/C(=S)c1cccs1	114	-42	107	91
CC(=O)c1ccc(NC(=O)CN2C(=O)CCc3cc(S(=O)(=O)N4CCC(C)CC4)ccc32)cc1	102	nt	92	86

Compound profiles, as listed above. Order of values: GIV-Gai inh, HCMV UL50-53 inh, Sa growth inh, Sa growth inh second temp
Results for Cc1ccc(C(=O)Nc2ccc3c(c2)CS(=O)(=O)C3)cc1 → 105, -5, 96, 93
Results for Oc1ccc(Oc2ncc(Cl)cc2Cl)cc1 → 99, -45, 103, 92

The listing picks up, starting 3 compounds before the break.
SMILES	GIV-Gai inh	HCMV UL50-53 inh	Sa growth inh	Sa growth inh second temp
CCOC(=O)c1ccc2nc3c(nc2c1)C(=O)c1ccccc1C3=O	123	-6	88	67
CN(C)/C=C/C(=S)c1cccs1	114	-42	107	91
CC(=O)c1ccc(NC(=O)CN2C(=O)CCc3cc(S(=O)(=O)N4CCC(C)CC4)ccc32)cc1	102	nt	92	86
Cn1c(Cc2cccc3ccccc23)nnc1SCc1ccccc1C#N	106	-4	109	93
CCCCc1nn2c(=O)cc(COC(=O)c3ccc4c(c3)OCO4)nc2s1	103	nt	90	93
CC1CCCN(CCS(=O)(=O)c2ccccc2)C1 (centres undefined)	104	-34	89	87
O=C(Nc1ccc(Cl)cc1C(=O)N1CCOCC1)c1ccco1	105	0	86	96
COCCNC(=O)Cn1cnc2onc(-c3ccc(F)cc3)c2c1=O	107	-36	95	97
O=C(CN1C(=O)S/C(=C\c2ccc(-c3ccc(F)cc3F)o2)C1=O)N1CCOCC1	104	-32	111	95
CC(=O)Nc1ccccc1/C=C/Br	nt	-2	101	86
Cc1ccc(S(=O)(=O)N2CCCC(C(=O)NCCc3ccccc3)C2)cc1 (centres undefined)	99	nt	88	91
Cc1cc(C)c(C(=O)O)c(=S)[nH]1	nt	-11	78	58
COc1ccc(C2CC(c3ccc(Cl)cc3)=NN2C(=O)c2cccc([N+](=O)[O-])c2)cc1 (centres undefined)	110	4	nt	nt
O=c1nc(-c2ccccc2)c2cc(SC(F)F)ccc2[nH]1	108	-16	111	97
O=C(Sc1ncccc1C(F)(F)F)c1ccc(Cl)cc1	103	8	57	23
COC(=O)c1ccc(NC(=O)CSC2=NCCS2)cc1	108	-28	102	78

High-throughput results deposited in PubChem by ICCB-Longwood Screening Facility, Harvard Medical School.
